Anthrax LT inh: anthrax lethal toxin internalization inhibition | AID 912 | actives 0.67% (n = 70,000) | Potency, µM (titrated, usually from 40 µM), inactives show top-dose activity change, negative = inhibition, actives largely listed as inhibitors | Cells, anthrax lethal toxin internalization, FRET ratio (460/530); active = well fitted falling ratio curve with the 530 nm signal flat; inconclusive = other ratio curves, or a change in one channel alone; inactive = flat curves in the ratio and both channels; the % refers to the ratio; note: % is set by controls: 0 for no effect and ±100 for the full control effect; nearly all actives have a fitted effect of over 50% in size; tested in ME-180 cells; beta-lactamase reporter
SmPrx2 inh: blocks S. mansoni peroxiredoxin 2 enzymatic activity. actives 0.07% (n = 65,000). Potency, µM. S. mansoni Prx2 activity coupled to TGR/GSH (TGR is thioredoxin glutathione reductase), NADPH fluorescence loss, qHTS; some inactives read as strong as hits. AID 448; active means full or partial inhibition curve with a strong effect at the top dose; inconclusive means weaker partial or single-point curve; inactive means no accepted curve; note: series up to 57 µM; many of its hits are not listed in these tables
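Purified S. mansoni TGR and Prx2 in pH 7.4 phosphate buffer with EDTA and Tween-20 were preincubated with compounds for 15 min. Further NADPH/GSH was added, then a 2.5 mM H2O2 aliquot initiated turnover, followed kinetically by NADPH fluorescence.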
Active calls of the source: *; ? = inconclusive; · = no result given; & = joins results of further samples; [ ] = another dose, or the depositor's remark. Potency is the fitted concentration of half-maximal effect. This is a subset; count on the stated rates, not on these rows.

SMILES	Anthrax LT inh	SmPrx2 inh
Cc1ccnc(N2CCC(C(=O)Nc3nnc(C)s3)CC2)n1	-4%	>57
COc1ccccc1CNc1ncncc1-c1cccc(C#N)c1	1%	>57
Cc1nc(SCC(=O)Nc2ccc(C)c(F)c2)c2oc3ccccc3c2n1	-11%	>57
Fc1ccc(N2CCN(C(c3cccs3)c3nnnn3C3CCCC3)CC2)cc1 (stereo not given)	?	>57
Cc1cc(OCC(=O)Nc2ccncc2)ccc1Br	0%	·
O=C(CCc1nc2ccccc2[nH]c1=O)OCC(=O)N1CCc2ccccc21	-15%	>57
CCCS(=O)(=O)N1CCCC(C(=O)NCCCN(C)Cc2ccccc2)C1 (stereo not given)	-14%	>57
O=C(O)CCC(NC(=O)OCc1ccccc1)C(=O)O (stereo not given)	-15%	>57
CCOc1ccc(-c2nnc(SCC(=O)N(CC)CC)n2N)cc1	·	>57
Cc1noc(C)c1S(=O)(=O)N1CCC(C(=O)N2CCN(c3ccc(Cl)cc3)CC2)CC1	-13%	>57
O=C1COc2ccc3ccccc3c2CN1	5%	>57
C=CCc1cccc(CNc2nc3ccccc3n2CCC)c1O	?	>57
CCOC(=O)C1=C(C)NC2=C(C(=O)C(C(=O)OC)C(C)C2)C1c1ccc(OC)c(O)c1 (stereo not given)	9%	>57
COc1ccc(CC(=O)Nc2nc3n(n2)C(c2ccccc2)CC(=O)N3)cc1OC (stereo not given)	?	>57
O=C(c1ccccc1-c1nc(-c2ccc(F)cc2)no1)N1CCCC1	?	>57
Cc1cccc2cc(CN(CCCO)C(=O)Nc3cccc(Cl)c3)c(=O)[nH]c12	?	>57
O=C(CN1C(=O)c2ccccc2S1(=O)=O)N1CCc2ccccc21	13%	>57
CS(=O)(=O)N(Cc1ccccc1)c1ccccn1	-12%	·
COc1cc(OC)cc(-c2nc(N)n[nH]2)c1	?	>57
CN1C(=O)CC(N2CCN(c3ncccn3)CC2)C1=O (stereo not given)	4%	·
CCC(OC(=O)c1cccs1)C(=O)NC1CCCCC1 (stereo not given)	-2%	>57
Cc1onc(-c2ccccc2Cl)c1C(=O)Nc1ccc(-n2nncc2-c2ccco2)cc1	·	>57
COc1ccccc1-c1ccc(Nc2cccc(C(C)=O)c2)nn1	?	>57
CN(C1CCCCC1)S(=O)(=O)c1ccc(NC(=O)C2CCCCC2C(=O)O)cc1 (stereo not given)	10%	>57
Cc1cc(NC(=O)Cn2nc(C(F)(F)F)c3c2CCC3)no1	15%	>57
CCOC(=O)c1sc2nc(CSCC(=O)OCc3ccc(C(=O)OC)o3)[nH]c(=O)c2c1C	6%	>57
CCOC(=O)c1cnc(-n2nc(C)cc2C)nc1NC1CCCCC1	?	>57
CNc1ccnc(-c2ccccc2OC)n1	-4%	>57
C/C=C/c1ccc(OCCCNCC(C)O)c(OC)c1 (stereo not given)	-8%	>57
O=C(CSc1nc2c(c(=O)n1-c1ccc(Br)cc1)SCC2)NCc1ccco1	-6%	>57
COc1ccc(S(=O)(=O)Nc2ccc(S(=O)(=O)Nc3nc(C)cc(C)n3)cc2)cc1OC	8%	>57
Cc1ccccc1Cn1nnc(C(=O)Nc2cccc(C)c2C)c1N	-12%	>57
Fc1ccc(Nc2nc(-c3cccnc3)nc3ccccc23)cc1	-16%	>57
COCc1cc(C)nc(SCC(=O)Nc2ccc3c(c2)OCO3)c1C#N	-14%	·
CC(=O)NCC(=O)N(Cc1ccco1)C1(C(=O)NC2CCCCC2)CCCCC1	1%	>57
Cc1cccc(CNc2ncncc2-c2ccc3c(c2)OCO3)c1	-12%	>57
COc1cc2c(cc1OC)-c1cc(NC3CCCC3)nc(=O)n1CC2	10%	>57
COc1ccc(CCNS(=O)(=O)c2cn(C)c(=O)n(C)c2=O)cc1OC	18%	>57
CCCCC(=O)Nc1nnc(C)s1	4%	>57
CC(C)NC(=O)N1CC[C@@]2(CCCN(C(=O)c3cnccn3)C2)C1	4%	>57
COC(=O)c1cc(COC(=O)c2ccc(OC)c(S(=O)(=O)N3CCCC3)c2)oc1C	-3%	>57
Clc1cc(Cl)c2nc(N3CCOCC3)sc2c1	2%	>57
Cc1cccc(-c2cc3nc(C)cc(NCCCN(C)C)n3n2)c1	?	>57
Cc1nc(N2CCN(S(=O)(=O)c3ccc(F)cc3)CC2)c2c(C)c(C)sc2n1	-5%	>57
CC(=O)C(C)=O	1%&-1%	>57
COc1ccc(-c2ccc(SCC(=O)N3CCOCC3)nn2)cc1OC	-4%	>57
CCCOCC(O)COc1ccccc1C(=O)N1CCOCC1 (stereo not given)	·	>57
CC(=O)c1cccc(NC(=O)C2CCCN(S(C)(=O)=O)C2)c1 (stereo not given)	-7%	>57
N#Cc1ccc(C23CC4CC(CC(C4)C2)C3)[nH]c1=O	?	>57
CN(c1ccc(OCC(=O)N2CCCCC2)cc1)S(=O)(=O)c1cccs1	8%	>57

In the list so far, 5 have an aryl thioether with sulfur outside any ring:
SMILES	Anthrax LT inh	SmPrx2 inh
Cc1nc(SCC(=O)Nc2ccc(C)c(F)c2)c2oc3ccccc3c2n1	-11%	>57
CCOc1ccc(-c2nnc(SCC(=O)N(CC)CC)n2N)cc1	·	>57
O=C(CSc1nc2c(c(=O)n1-c1ccc(Br)cc1)SCC2)NCc1ccco1	-6%	>57
COCc1cc(C)nc(SCC(=O)Nc2ccc3c(c2)OCO3)c1C#N	-14%	·
COc1ccc(-c2ccc(SCC(=O)N3CCOCC3)nn2)cc1OC	-4%	>57

(continued)
SMILES	Anthrax LT inh	SmPrx2 inh
CCOC(=O)c1ccc(N2C(=O)CC(N(C)CCc3ccc(OC)c(OC)c3)C2=O)cc1 (stereo not given)	-14%	·
Cc1ccc(NC(=O)NCC(c2cccnc2)N2CCOCC2)cc1 (stereo not given)	2%	>57
O=C(NCc1ccco1)c1cc2ccc(O)cc2oc1=O	?	·
C=CCN(C(=O)CCC(=O)Nc1cc(C)on1)C(C(=O)NC1CCCC1)c1cccnc1 (stereo not given)	2%	>57
COc1c(Br)cc(Br)cc1/C=N/n1c(C)nnc1C	10%	>57
COc1ccc(OC)c(S(=O)(=O)N2CCC(C(=O)NCCC3=CCCCC3)CC2)c1	6%	>57
COc1ccc(C2CC(c3cc(OC)ccc3OC)n3nnnc3N2)cc1 (stereo not given)	-7%	>57
CC(=O)NCC1=C(NC(C)=O)C2CC1C(C)(C)C2C (stereo not given)	1%	>57
COC(=O)C1CCN(C(=O)c2ccc(NC(C)=O)cc2)CC1	15%	·
CC(=O)c1ccc(NC(=O)CSCCO)cc1	6%	>57
CCN1CCN(c2nc3ccccc3nc2C(C#N)C(=O)OCc2ccccc2)CC1 (stereo not given)	-10%	>57
O=C(CCCC1=NS(=O)(=O)c2ccccc2N1)N1CCC2(CC1)OCCO2	3%	>57
COc1ccc(CCNC(=O)c2ccncc2)cc1OC	4%	·
O=C(Nc1ccc(S(=O)(=O)C(F)F)cc1)c1cccc(S(=O)(=O)N2CCOCC2)c1	-11%	>57
COC(=O)c1cccc(NC(=O)c2ccc(S(=O)(=O)N3CCN(C)CC3)cc2)c1	-23%	>57
Cc1cccc(CNc2ncnc3ccc(-c4cccc(NS(C)(=O)=O)c4)cc23)c1	?	>57
O=C(NCc1ccco1)c1cc2sccc2n1Cc1ccc(F)cc1	?	>57
COC(=O)N1CCC2(CCN(C(=O)Nc3cccc(C#N)c3)CC2)CC1	?	>57
Cn1cc(SCC(=O)Nc2nc3ccccc3s2)c2ccccc21	?	>57
Cc1ccc(NC(=O)N2CCC(c3nc4c(nnn4Cc4cccc(Cl)c4)c(=O)[nH]3)CC2)cc1	?	>57
O=C(CSc1nnc2ccccn12)c1ccc2c(c1)OCCO2	20%	>57
CCCn1c(NC(=O)c2ccccc2)nc2ccccc21	-13%	>57
COc1ccccc1N1CCN(C(=O)c2sc3nc(-c4ccc(F)cc4)cn3c2C)CC1	16µM*	>57
C=CCN1C(=O)CN=C1NCc1ccccc1	0%	>57
CN(CC(=O)NC1CCCc2ccccc21)S(=O)(=O)c1ccc2c(c1)c(=O)n(C)c(=O)n2C (stereo not given)	-23%	>57
Nn1c(SCC(=O)N2CCOCC2)nnc1-c1ccc(Cl)cc1Cl	-4%	>57
CC(C1CC1)N(C(=O)NC1CCS(=O)(=O)C1)c1ccccc1 (stereo not given)	-4%	>57
COc1nc(N)nc(CC(=O)C2CC2)n1	-19%	>57
CCSc1sccc1C1C(C#N)=C(N)N(c2cccnc2)C2=C1C(=O)CCC2 (stereo not given)	?	>57
COCCn1c(CCC(=O)O)nc2c1c(=O)[nH]c(=O)n2CC(C)C	11%	>57

Not a retest: an excerpt of the list.
SMILES	Anthrax LT inh	SmPrx2 inh
COc1ccccc1-c1ccc(Nc2cccc(C(C)=O)c2)nn1	?	>57
CN(C1CCCCC1)S(=O)(=O)c1ccc(NC(=O)C2CCCCC2C(=O)O)cc1 (stereo not given)	10%	>57
Cc1cc(NC(=O)Cn2nc(C(F)(F)F)c3c2CCC3)no1	15%	>57
CCOC(=O)c1sc2nc(CSCC(=O)OCc3ccc(C(=O)OC)o3)[nH]c(=O)c2c1C	6%	>57
CCOC(=O)c1cnc(-n2nc(C)cc2C)nc1NC1CCCCC1	?	>57
CNc1ccnc(-c2ccccc2OC)n1	-4%	>57

(listing goes on)
SMILES	Anthrax LT inh	SmPrx2 inh
C[C@H](NC(=O)Nc1ccc2c(c1)OCCO2)C(=O)O	13%	>57
COc1ccc2c(c1)c(CC(=O)O)c(C)n2C(=O)c1ccccc1	0%	>57
Cc1ccc2c(CC(=O)OCc3nc(N)nc(Nc4ccccc4C)n3)coc2c1	5%	>57
CC(C)Sc1nnc([C@@H](N)Cc2c[nH]c3ccccc23)o1	-1%	>57
COc1ccc(-n2nc(C(=O)N3CCN(c4ccc(F)cc4)CC3)c3ccccc3c2=O)c(OC)c1	?	>57
COC(=O)c1ccc(NC(=O)c2ccccc2NS(C)(=O)=O)cc1	-9%	>57
CCCC1(C(=O)OC)C=C2C(=C(C(C)C)C(=O)C2C)CN1 (stereo not given)	2%	>57
CC1(C)OC(C(O)(c2ccccc2)c2ccccc2)C(C(O)(c2ccccc2)c2ccccc2)O1 (stereo not given)	-6%[8 µM]	·
CC1CCN(CCCNC(=O)Cc2c(C(=O)O)n(C)c3ccccc23)CC1	9%	>57
COc1cc(OC)c(C2C(C(=O)N3CCOCC3)=C(C)NC3=C2C(=O)CC(C)(C)C3)cc1OC (stereo not given)	3%	>57
CCOC(=O)C1CCN(c2c(NC3CCCc4ccccc43)c(=O)c2=O)CC1 (stereo not given)	?	>57
O=C(CCc1ccc(S(=O)(=O)N2CCOCC2)cc1)Oc1ccccc1	-6%	>57
COC(=O)c1ccc(COc2ccc3c(C)c(C)c(=O)oc3c2C)o1	?	>57
O=C(O)CCC(=O)Nc1ccc(Br)cn1	7%	>57
CCOc1ccc(N/C(SC)=C(/C#N)C(N)=O)cc1	4%	>57
CC(=O)Nc1nc2ccccc2n1CCN(C)C	0%	·
C[C@]1(C(=O)NCCCNc2ncc(C(F)(F)F)cc2Cl)C=C[C@@H](Cc2ccccc2)N1C(=O)c1ccccc1	?	·
COc1cccc(-n2c(Cc3cc(=O)[nH]c(=O)[nH]3)nnc2SC(C)C)c1	5%	>57
CC(NC(=O)C1CCC1)c1ccc(Cl)cc1 (stereo not given)	5%	>57
CC1=C(C(=O)NC(C)C)C2(CCC(C)CC2)OC1=O (stereo not given)	-6%	>57
Cc1cc(C(=O)N2CCN(c3ncccn3)CC2)c2cc(F)ccc2n1	4%	>57
CCCOC(=O)CSc1nnc(-c2ccc(Cl)cc2Cl)o1	1%	>57
Cc1cc(C(=O)COc2cccc(-n3cnnn3)c2)c(C)n1-c1ccccc1	?	>57
COc1cc(C2c3c(oc4ccccc4c3=O)C(=O)N2Cc2ccncc2)ccc1O (stereo not given)	?	>57
COc1ccc(NCc2n[nH]nc2-c2ccccc2)cc1Cl	·	>57
O=CN(CCN(C=O)CN1CCCCC1)CN1CCCCC1	-3%	·
CC(=O)NCCNc1ncncc1-c1ccccc1CN(C)C	?	>57
CN1CCN(c2ncc3nc(-c4cn(C)c5ccccc45)c(=O)n(C[C@H]4CCCO4)c3n2)CC1	?	>57
O=C(Cn1cnc2c(cnn2-c2ccccc2)c1=O)N1CCCc2ccccc21	-8%	>57
CCOC(=O)Cc1nnc(NC(=O)C(CC)Sc2nnc3c4ccccc4n(C)c3n2)s1 (stereo not given)	9%	>57
CC(C)C(=O)Nc1ccc(NC(=O)c2ccccc2Cl)nc1	-3%	>57
O=C1C2CC=CCC2C(=O)N1CC(=O)N(Cc1ccccc1)C1CCS(=O)(=O)C1 (stereo not given)	18%	>57
COC(=O)CCCC(=O)Nc1c(F)c(F)c(F)c(F)c1F	-14%	>57
CCOc1ccc(S(=O)(=O)NCCC(=O)NC2=NCCS2)cc1	0%	>57
NC(=O)C1CCN(C(=S)c2cccs2)CC1	-1%	>57
O=C(O)Cn1cc(C(=O)c2cccs2)c2ccccc21	-11%	>57

Bioassay records as filed in PubChem.
